Mtb MbtI inh: inhibitors of Mycobacterium tuberculosis siderophore enzyme MbtI | 0.89% of 100,000 active | inhibition, %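 (about 17 µg/mL by stock and volumes)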 | purified MbtI enzyme, fluorescence intensity read-out | AID 493033 | P9WFX0;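 active = above 50% in both replicates, above 80% if mildly self-fluorescent; inactive = the rest, strongly fluorescent compounds included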;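 note: 0% = mean of negative and 100% = mean of positive controls; one replicate is shown; some compounds called inactive have numbers as strong as hits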
Target sequence (P9WFX0 whole entry, looked up): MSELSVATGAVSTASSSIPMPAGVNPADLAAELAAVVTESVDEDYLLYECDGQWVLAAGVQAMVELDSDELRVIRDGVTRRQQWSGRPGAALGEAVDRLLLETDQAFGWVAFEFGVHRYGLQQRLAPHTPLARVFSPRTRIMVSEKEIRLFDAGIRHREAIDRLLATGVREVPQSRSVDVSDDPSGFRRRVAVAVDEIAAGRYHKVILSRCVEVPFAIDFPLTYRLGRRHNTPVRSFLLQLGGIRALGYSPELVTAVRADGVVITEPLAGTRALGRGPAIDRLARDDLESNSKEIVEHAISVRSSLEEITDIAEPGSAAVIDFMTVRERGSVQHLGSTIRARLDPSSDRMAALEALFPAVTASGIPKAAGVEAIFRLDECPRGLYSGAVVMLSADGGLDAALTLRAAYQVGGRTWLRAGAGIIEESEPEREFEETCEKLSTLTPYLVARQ
PV pol inh: poliovirus RNA polymerase inhibition | P03300 | poliovirus polymerase elongation, fluorescence polarization; stronger effect = lower value | % elongation, % (compound at 16.7 µg/mL) | 0.66% of 150,000 active | AID 588519; in the data active = % elongation below about 90%; note: some results filed as inactive read as strong as hits
Mtb MenB inh: inhibitors of Mycobacterium tuberculosis MenB enzyme | P9WNP5 | MenB enzyme assay, absorbance read-out; some hits fall short of the stated cut | inhibition, %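 (about 12 µg/mL by stock and volumes)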 | 0.43% of 100,000 active;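 active = mean of two replicates above 30%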;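 note: 0% = no compound and 100% = wells with inactive enzyme; the first replicate is given; strong numbers were not always called active; inactives centre near -10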
Target sequence (P9WNP5 whole entry, looked up): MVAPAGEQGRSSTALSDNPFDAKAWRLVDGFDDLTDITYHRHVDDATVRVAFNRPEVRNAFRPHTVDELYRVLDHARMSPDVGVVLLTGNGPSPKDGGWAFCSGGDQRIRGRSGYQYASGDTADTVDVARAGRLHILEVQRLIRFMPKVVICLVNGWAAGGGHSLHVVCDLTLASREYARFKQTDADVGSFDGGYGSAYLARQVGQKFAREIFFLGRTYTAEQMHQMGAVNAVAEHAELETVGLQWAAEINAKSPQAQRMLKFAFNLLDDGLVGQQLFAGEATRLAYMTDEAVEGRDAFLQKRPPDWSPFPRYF
PV pol inh intensity: recorded beside PV pol inh, whose call it bears; % elongation; measured here: total intensity read-out; formula for this scale not given here;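 total fluorescence in place of polarization; lower means less elongation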
Numbers without * were called inactive; i = inactive; / = not tested or not shown. Outcome played no part in choosing rows; about 1.7% have a hit in one of these screens.

smiles	Mtb MbtI inh	PV pol inh	PV pol inh intensity	Mtb MenB inh
O=C(NC1=NCCS1)C1CC=CCC1 (configuration not stated)	-3	104	109	19
CC(C)OC(=O)Cn1c(C(=O)OC(C)C)cc2c1ccn2-c1ccc(F)cc1	90	99	106	-46
O=C(NC(=O)c1ccccc1)OC1CCS(=O)(=O)C1 (configuration not stated)	/	98	99	-7
Cc1ccc(S(=O)(=O)Nc2ccc(OCc3cc(=O)n4ccsc4n3)cc2)cc1	3	102	101	-22
N#Cc1ccc(OCC(O)CN2CCC(O)CC2)cc1 (configuration not stated)	-13	101	101	-4
CC1CCCC(C)N1C(=O)COC(=O)C12CC3CC(CC(C3)C1)C2 (configuration not stated)	-6	102	100	/
Cc1c(NC(=S)N2c3ccccc3CC2C)c(=O)n(-c2ccccc2)n1C (configuration not stated)	13	101	97	6
COCC(C)N=CC1=C(O)CC(C)(C)CC1=O (configuration not stated)	24	100	103	0
CC(=O)Nc1cccc(N=Cc2cc(I)cc(C)c2O)c1	2	98	97	-10
CN(Cc1nc(-c2ccccc2)no1)C(=O)CSc1ccccc1	-11	102	103	3
O=C(c1ccccc1)N1CCn2c1nc1ccccc12	/	110	113	-10
CNC(=O)c1c2c(nc3ccc(Br)cc13)CCCC2	-6	103	100	/
COc1ccc(NC(=O)Cc2nc(-c3ccc(OC)cc3)no2)cc1	-28	101	103	-13
C/[N+]([O-])=C\c1cccnc1	14	96	107	10
O=C(COC(=O)c1cccs1)Nc1ccccc1C(F)(F)F	-3	100	94	/
N#CCSc1nnc2n(-c3ccccc3)c(=O)c3ccccc3n12	2	103	106	-21
CC1(CSc2ccccc2C(=O)Nc2nc3ccccc3[nH]2)NC(=O)NC1=O (configuration not stated)	9	95	94	-1
Oc1ccc(/C=N/N2CCN(Cc3cccc4ccccc34)CC2)cc1O	15	105	113	-17
CCS(=O)(=O)c1cccc(C(=O)Nc2nnc(-c3ccc4c(c3)OCCO4)o2)c1	5	105	98	-51
O=C(CSc1nnc(Cc2ccccc2)o1)C12CC3CC(CC(C3)C1)C2	2	96	97	5
CCn1cc(C(=O)OC)c(=O)c2ccc(C)nc21	9	101	102	15
O=C(O)c1ccc(CNCc2cccc(Oc3ccccc3)c2)cc1	1	103	106	-12
CCc1sc2sncc2c1Br	/	97	92	-3
CN(CCCN)Cc1ccccc1	13	99	100	-1
N#C/C(=N\O)C(=O)c1ccco1	-5	103	106	-6

smiles	Mtb MbtI inh	PV pol inh	PV pol inh intensity	Mtb MenB inh
O=C(Cc1ccccc1)Nc1ccncc1	3	102	103	-37
O=C(Cc1ccccc1)c1ccccc1C(=O)NCc1ccc(F)cc1	/	100	106	-6
CC1(C)CC(=O)C=C(OC(=O)c2ccc(C(C)(C)C)cc2)C1	-6	103	104	-18
O=C1CCC(=O)N1OCCCOc1ccccc1	-2	103	103	-19
CCc1ccc(NC(=O)CCCn2c(=O)c3cccn3c3ccccc32)cc1	-2	101	106	9
CC1CCC(NC(=O)CCN2C(=O)C3CC=CCC3C2=O)CC1 (configuration not stated)	-10	99	95	-18
CCOC(=O)c1c(N)sc2c1CN(C(=O)OC)N(C(=O)OC)C2	10	102	102	21
Cc1ccccc1-n1ccnc1SCC(=O)O	-10	110	105	-23
COc1cccc(C2=NOC(C(=O)Nc3cccnc3)C2)c1 (configuration not stated)	5	101	103	-10
CCCc1nc2c(o1)N(C(=O)OCC)C(N)=C(C#N)C21CCNCC1	/	109	109	-5
Cc1ccc(N=C2N=C(N)c3ccccc32)cc1Cl	-5	102	100	/
CC(c1ccccc1)n1c(SCC(=O)N(C)C)nc2ccccc2c1=O (configuration not stated)	-4	105	109	-18
Cc1cc(NC(=O)c2cc(-c3ccccn3)nc3ccccc23)n[nH]1	17	99	107	-15
CN1CCN(C(=O)CC(c2ccccc2)c2ccccc2)CC1	1	99	102	-22
COc1ccc(CCNC(=O)C(C(C)C)N2C(=O)c3ccccc3C2=O)cc1 (configuration not stated)	1	100	101	0
O=C(CNC(=O)C12CC3CC(CC(C3)C1)C2)N1CCN(c2ccccc2Cl)CC1	-11	107	106	-26
COc1ccc(/C=C(\C#N)C(=O)C(C)(C)C)cc1	-17	98	89	-39
CCOC(=O)c1nn(-c2ccccc2)c(C#N)c1NC(=O)c1nn(CC)cc1Br	22	104	107	-30
O=C(O)c1ccc(COc2ccc(Cl)cc2)o1	13	98	104	-17
O=C(O)C(Cc1ccccc1)NCc1c(O)ccc2c3c(c(=O)oc12)CCCC3 (configuration not stated)	/	106	93	-18
CC(C)CCOc1ccc2c3c(c(=O)oc2c1)CCC3	i	100	104	-6
CCN[C@H]1CN(CCCOC)S(=O)(=O)c2sc(S(N)(=O)=O)cc21	-16	99	101	2
COc1ccc(-n2cnc3cc(C(=O)N4CCC5(CC4)OCCO5)ccc32)cc1	-9	100	104	1
O=C(c1ccccc1)c1ccco1	7	105	113	-19
O=C1NC(=O)N(c2ccccc2)C(=O)/C1=C/C=C/c1ccco1	88*	101	109	-180

Arranged by formula weight (ascending): part of the list above.
smiles	Mtb MbtI inh	PV pol inh	PV pol inh intensity	Mtb MenB inh
O=C(c1ccccc1)c1ccco1	7	105	113	-19
O=C(NC1=NCCS1)C1CC=CCC1 (configuration not stated)	-3	104	109	19
CCn1cc(C(=O)OC)c(=O)c2ccc(C)nc21	9	101	102	15
CCc1sc2sncc2c1Br	/	97	92	-3
O=C1CCC(=O)N1OCCCOc1ccccc1	-2	103	103	-19
O=C(O)c1ccc(COc2ccc(Cl)cc2)o1	13	98	104	-17
O=C(c1ccccc1)N1CCn2c1nc1ccccc12	/	110	113	-10
Cc1ccc(N=C2N=C(N)c3ccccc32)cc1Cl	-5	102	100	/
CC(C)CCOc1ccc2c3c(c(=O)oc2c1)CCC3	i	100	104	-6
O=C(NC(=O)c1ccccc1)OC1CCS(=O)(=O)C1 (configuration not stated)	/	98	99	-7
COc1cccc(C2=NOC(C(=O)Nc3cccnc3)C2)c1 (configuration not stated)	5	101	103	-10
CC1(C)CC(=O)C=C(OC(=O)c2ccc(C(C)(C)C)cc2)C1	-6	103	104	-18
CN1CCN(C(=O)CC(c2ccccc2)c2ccccc2)CC1	1	99	102	-22
CNC(=O)c1c2c(nc3ccc(Br)cc13)CCCC2	-6	103	100	/
CC1CCCC(C)N1C(=O)COC(=O)C12CC3CC(CC(C3)C1)C2 (configuration not stated)	-6	102	100	/
CN(Cc1nc(-c2ccccc2)no1)C(=O)CSc1ccccc1	-11	102	103	3
CCOC(=O)c1c(N)sc2c1CN(C(=O)OC)N(C(=O)OC)C2	10	102	102	21
Oc1ccc(/C=N/N2CCN(Cc3cccc4ccccc34)CC2)cc1O	15	105	113	-17
CC(c1ccccc1)n1c(SCC(=O)N(C)C)nc2ccccc2c1=O (configuration not stated)	-4	105	109	-18
CCc1ccc(NC(=O)CCCn2c(=O)c3cccn3c3ccccc32)cc1	-2	101	106	9
COc1ccc(CCNC(=O)C(C(C)C)N2C(=O)c3ccccc3C2=O)cc1 (configuration not stated)	1	100	101	0
CCN[C@H]1CN(CCCOC)S(=O)(=O)c2sc(S(N)(=O)=O)cc21	-16	99	101	2
CC(C)OC(=O)Cn1c(C(=O)OC(C)C)cc2c1ccn2-c1ccc(F)cc1	90	99	106	-46
COc1ccc(-n2cnc3cc(C(=O)N4CCC5(CC4)OCCO5)ccc32)cc1	-9	100	104	1
CC1(CSc2ccccc2C(=O)Nc2nc3ccccc3[nH]2)NC(=O)NC1=O (configuration not stated)	9	95	94	-1
O=C(CNC(=O)C12CC3CC(CC(C3)C1)C2)N1CCN(c2ccccc2Cl)CC1	-11	107	106	-26
Cc1ccc(S(=O)(=O)Nc2ccc(OCc3cc(=O)n4ccsc4n3)cc2)cc1	3	102	101	-22

Next part.
smiles	Mtb MbtI inh	PV pol inh	PV pol inh intensity	Mtb MenB inh
CCC(=O)n1nc(NCc2ccc(F)cc2)nc1NCc1ccc(F)cc1	-25	102	101	-77
COc1ccc(CCNC2CCCCC2)cc1OC	-9	100	104	-14
CN1C(=O)N(CCOc2ccc(Cl)cc2)C(=O)C1(C)C	-4	102	93	-32
N#Cc1ccc(OC(=O)c2ccc(Cl)cc2)cc1	-3	98	103	-3
C=CCNc1sc(C(=O)c2cccs2)c(N)c1C#N	-6	103	103	-76
Cc1cc(C)nc(N/C(=N\S(=O)(=O)Cc2ccccc2)Nc2ccccc2Br)n1	-3	102	106	-46
CCOC(=O)N1CCN(C(=O)CN(c2ccccc2)S(=O)(=O)c2ccc(F)cc2)CC1	-6	100	101	5
CCOC(=O)C1=Cc2sc3c(c2CS1)CCCC3	12	101	97	-54
CCN(CC)S(=O)(=O)c1ccc2c(c1)c(=O)c(C(=O)NCc1cccs1)cn2C	-2	99	102	6
N#C/C(=C(/O)COc1ncnc2ccccc12)c1nc2ccccc2[nH]1	-39	134	190	-15
O=C(Nc1ccccc1)Nc1ccc(-c2nnc3n2CCCCC3)cc1	-11	104	100	-16
CCOc1ccc(NC(C)C(=O)NCc2ccc3c(c2)OCO3)cc1 (configuration not stated)	0	105	110	-21
CC(C)(C)NS(=O)(=O)c1ccc(NC(=O)CN2C(=O)c3ccccc3C2=O)cc1	-15	102	103	-11
N#CCOC(=O)[C@H](Cc1ccccc1)N1C(=O)c2ccccc2C1=O	10	102	100	-24
CCCc1cc(=O)n2c(nc3ccccc32)[nH]1	113	98	99	-14
CC(=O)N/C(=C/c1ccccc1)C(=O)Nc1ccc(C)c(C)c1	/	105	114	-5
Cc1cc(C(=O)NCc2ccc(S(N)(=O)=O)cc2)cs1	4	100	104	5
COc1ccc(Cn2nnc3c(=O)[nH]c(C4CCCN(S(=O)(=O)c5ccccc5)C4)nc32)cc1 (configuration not stated)	-1	105	107	-3
O=C(O)Cc1cn(-c2ccccc2)nc1-c1ccccc1	-18	99	104	/
O=C(O)CN=CC1=C(O)CC(c2ccccc2)CC1=O (configuration not stated)	10	101	105	-22
Cc1ccc2nc(-c3ccc(O)c(O)c3)cn2c1	/	105	100	13
CCOC(=O)C1=C(N)Oc2c(c(=O)[nH]c3ccccc23)C1c1ccc(OC)c(OC)c1 (configuration not stated)	-12	102	103	-50
CC(C)Nc1nc(Cl)nc(Nc2ccc(-c3nc4ccccc4o3)cc2)n1	115	99	101	10
COc1ccccc1N=c1scc(-c2ccco2)n1/N=C/c1ccccn1	19	102	96	-171
CCc1ccccc1CSc1n[nH]c(=O)n1Cc1ccco1	-1	103	104	4

smiles	Mtb MbtI inh	PV pol inh	PV pol inh intensity	Mtb MenB inh
OC1CCN(Cc2c[nH]c3ccccc23)CC1	-23	98	104	-3
CCC1=C(C(=O)OC)C(c2cccc(O)c2)n2ncnc2N1 (configuration not stated)	1	/	/	-13
CCN(c1ccccc1)S(=O)(=O)c1ccc(CC(C)C)cc1	5	103	98	-11
COc1ccc(CNC(C)=O)cc1	/	101	99	-8
COC(=O)c1ccc2c(c1)N(C)S(=O)(=O)/C(=C\Nc1ccc(Cl)cc1)C2=O	1	114	120	11
Cc1ccc(S(=O)(=O)N=C2SCCCS2)cc1	4	102	102	18
NC(=O)Cc1cc2ccccc2n1Cc1ccccc1	/	97	103	-13
N#CC(Nc1ccc(Cl)cc1Cl)c1ccccc1 (configuration not stated)	-3	103	106	5
FC(F)(F)c1ccc2sc(=S)[nH]c2c1	/	96	104	-11
CCCC(=O)Nc1nc(CC(=O)OCC)cs1	-8	102	104	-25
COc1ccc(C2=NN(CC(=O)NCCN3C(C)CCCC3C)C(=O)CC2)cc1 (configuration not stated)	-9	100	103	0
O=C(c1ccc(CSc2ncn[nH]2)cc1)N1CCc2ccccc21	1	101	112	-3
CCC(=O)NC(Nc1ccc(S(=O)(=O)Nc2ccc(OC)nn2)cc1)(C(F)(F)F)C(F)(F)F	2	98	101	-19
N#C/C(=C\N1CCC(n2cccc2)CC1)S(=O)(=O)c1ccccn1	-5	110	110	-17
CC1CCCC(NC(=O)c2ccc3c(c2)N(Cc2ccccc2)C(=O)CS3=O)C1C (configuration not stated)	3	100	101	-6
CC(C)(C)c1nc(N)nc(NNS(=O)(=O)c2ccccc2C(F)(F)F)n1	0	102	100	-11
